TAR Tat displ = HIV-1 TAR-Tat binding disruption; HIV-1 TAR RNA, Tat peptide displacement FRET; hits give high values; z-score (no concentration beside the values); hit rate 0.6% among 100,000;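 further: score is relative to mean and SD of negative controls; some compounds called inactive have numbers as strong as hits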
CDC25B-CDK2 inh = human CDC25B-CDK2/CyclinA binding inhibition | P30305+P24941 | HTRF CDC25B-CDK2/CyclinA binding, anti-His/anti-Flag; hits give high values | hit rate 0.72% among 94,000 | AID 1259370 | z-score (no concentration beside the values);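 further: score is relative to mean and SD of negative controls; strong numbers were not always called active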
An asterisk follows results filed as active; nt = not tested or not shown; & = joins results of further samples.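 How the source made its calls: active means z-score from 3 up in half or more of its runs; inactive means the rest.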

SMILES	TAR Tat displ	CDC25B-CDK2 inh
CCCn1c2ccccc2c2cnn(CC(=O)N(C)c3ccccc3Cl)c(=O)c21	-0.58	nt
CC1CCc2c(sc3c2CSC(C(=O)NC2CC2)=C3)C1 (centres undefined)	0.09	nt
Nc1nc(N2CCN(Cc3ccccc3)CC2)nc(Nc2cccc(F)c2)c1[N+](=O)[O-]	0.39	nt
CCC1c2cccn2-c2sc3c(c2CN1C(=O)NC(C)C)CCCC3 (centres undefined)	0.38	nt
CC1(C)CC(=O)C2=C(C1)Nc1ccccc1N(Cc1ccccc1)C2c1ccco1 (centres undefined)	-6.97	nt
COc1ccccc1C(=O)CC1(O)C(=O)N(CCc2ccccc2)c2ccc(Br)cc21 (centres undefined)	-1.25	0.66
CC(C)CC1=NN(S(=O)(=O)c2ccccc2)C(O)(C(F)(F)F)C1 (centres undefined)	nt	-1.84
COC(=O)c1cc(NC(=O)c2ccc(OC)c(Br)c2)cc(C(=O)OC)c1	nt	-3.26
Cc1ccc(S(=O)(=O)Nc2cccc(-c3ccc(N4CCCCC4)nn3)c2)s1	0.14	nt
O=C(/C=C/c1ccc(Cl)cc1)Nc1ccc(-c2nc3ccccc3o2)c(O)c1	nt	-2.66
COc1c(NC(=O)N2CC(C)OC(C)C2)csc1Cl (centres undefined)	nt	-2.47
COc1ccc(-c2cc(C)no2)cc1S(=O)(=O)N(C)CC1COc2ccccc2O1 (centres undefined)	0.76	nt
CCOc1cccc(C2c3c(-c4ccccc4O)n[nH]c3C(=O)N2CC2CCCO2)c1 (centres undefined)	1.33	-1.64
O=C(c1ccco1)c1cn(CC(=O)N2CCCC2)c2ccccc12	0.3	1.12
CC(C)(C)NC(=O)NCc1ccc2ncccc2c1	-0.68	nt
COc1ccc(Br)cc1C1CC(=O)Nc2nc(SCc3ccccc3)[nH]c(=O)c21 (centres undefined)	0.59	-2.31
CCCCN(C)c1nnc(NC(=O)Nc2ccc3c(c2)OCCO3)s1	2.24	-2.73
COC(=O)c1cc2occc2n1Cc1cn2ccccc2n1	0.25	-2.51
CC(C)CCNC(=O)c1ccc2c(=O)n3c(nc2c1)CCCCC3	nt	-1.48
O=C(Nc1ccccc1F)NC(c1ccccc1)c1nnc(-c2ccc(Cl)cc2)o1 (centres undefined)	1.43	nt
CCCOc1ccc(Oc2nc(C)nc3sc(C)c(C)c23)cc1	-0.19	nt
COc1cc(CNCc2ccc3c(c2)OCO3)cc(OC)c1	0.56	-0.33
COc1ccccc1/C=C/c1nn2c(Cn3nnc4ccccc43)nnc2s1	1.41	0.06
CCOCCOC(=O)C(C)Oc1ccc2c(=O)c(Oc3ccccc3Cl)coc2c1 (centres undefined)	nt	0.13
O=C(NNC(=O)C(F)(F)F)c1ccc[nH]1	nt	-2.09

Given bar-delimited: entries from further up.
SMILES | TAR Tat displ | CDC25B-CDK2 inh
O=C(/C=C/c1ccc(Cl)cc1)Nc1ccc(-c2nc3ccccc3o2)c(O)c1 | nt | -2.66
COc1c(NC(=O)N2CC(C)OC(C)C2)csc1Cl (centres undefined) | nt | -2.47
COc1ccc(-c2cc(C)no2)cc1S(=O)(=O)N(C)CC1COc2ccccc2O1 (centres undefined) | 0.76 | nt

Remaining list, next part:
SMILES	TAR Tat displ	CDC25B-CDK2 inh
Cc1nn(C(C)C(=O)NCC2CCCO2)c(=O)c2cc3sccc3n12 (centres undefined)	0.23	0.08
Cc1ccc(-c2cn3nc(C(C)C)sc3n2)c(C)c1	0.05	2.2
Cc1ccccc1CSc1nc2c(c(=O)[nH]1)C(c1ccc(F)cc1F)CC(=O)N2 (centres undefined)	1.33	-1.72
O=C(NS(=O)(=O)c1ccc(Cl)s1)c1ccccc1	nt	-1.34
Cc1cc2n(n1)CCCN2C(=O)CCC(=O)N1CCN(C2CCCCC2)CC1	1.57	nt
O=C(C1CCCO1)N1CCN(c2ncccn2)CC1 (centres undefined)	0.28	-0.36
O=S(=O)(NCC(c1ccco1)N1CCOCC1)c1cccs1 (centres undefined)	1.92	nt
O=C(c1ccccc1Cl)N1N=C2CCCCCC2C1(O)C(F)(F)F (centres undefined)	nt	-0.16
COc1ccc(-c2nc(SCC(=O)Oc3ccc(C)cc3C)n3[nH]c(=O)cc3n2)cc1	0.71	nt
COc1ccc(Nc2c3c4c(c(Br)ccc4n(C)c2=O)C(=O)c2ccccc2-3)cc1	-7.47	-0.72
Cc1cc(C)nc(SCc2nnc(SCC(N)=O)n2-c2ccccc2)n1	1.28	-0.43
CCN(C(=O)c1cccc(N2C(=O)C(C)(C)CS2(=O)=O)c1)C1CCS(=O)(=O)C1 (centres undefined)	0.02	-0.22
Nc1ccc2c(c1)N1CCN=C1S2	nt	-1.02
O=C(O)CNC(=O)CSc1ccc(Cl)cc1	nt	-1.55
Cc1cc(C)c2c(c1)CC(C)(C)/C(=N/NC(=O)CC#N)C2=O	nt	-2.23
Cc1cc(C)cc(N(C(=O)C(C)(C)C)C2C=CS(=O)(=O)C2)c1 (centres undefined)	0.66	-1.75
CC(=O)c1sc(-c2ccccc2)cc1NC(=O)CN1CCN(S(=O)(=O)c2ccc(C)cc2)CC1	nt	-1.74
CCOC(=O)C(CCSC)Nc1ncnc2onc(C)c12 (centres undefined)	0.24	nt
CC(=O)C1=C(c2ccccc2)c2cc(Cl)ccc2NC1	nt	-0.17
C=CCOc1cccc(-c2nc3c(c(=O)[nH]2)Cc2cc(C)ccc2O3)c1	0.95	-0.41
O=C(Cn1c(=O)oc2cc(S(=O)(=O)N3CCCC3)ccc21)N1CCN(c2ccccn2)CC1	0.58	1.03
Cc1noc2ncn(CC(=O)N3CCc4ccccc4C3)c(=O)c12	0.51	nt
CCCCCN[C@H]1CS(=O)(=O)C[C@@H]1S(=O)(=O)c1cccs1	-0.5	-0.23
CSc1cccc(NS(=O)(=O)c2ccc(-c3cnc(C4CC4)o3)cc2)c1	1.67	nt
CCC12CN3CC(C)(CN(C1)C3c1ccc(O)cc1O)C2=O (centres undefined)	-0.26	0.18
Following part.
SMILES	TAR Tat displ	CDC25B-CDK2 inh
CC(=O)Nc1ccc(C(C)(C)C)cc1NC(=O)C(Cl)(Cl)Cl	nt	-1.45
CC(C)(C)OC(=O)N/N=C\c1ccc(OC(=O)c2cccs2)cc1	nt	-3.41
COc1cccc(-n2nnc(-c3nc(-c4ccccc4F)no3)c2N)c1	0.38	nt
CC1(C)CS(=O)(=O)N(c2cccc(C(=O)NC3=NCCS3)c2)C1=O	1.03	-1.35
CCOCCOC(=O)C1=C(C)NC2=C(C(=O)CC(c3ccccc3)C2)C1c1ccc(CC)cc1 (centres undefined)	1.69	-1.34
Cc1noc(C(=O)Nc2sc3c(c2C#N)CCC3)c1Cl	1.93	-2.99
O=C(NCCN1CCCCC1)c1cnc2sccn2c1=O	1.29	nt
COc1ccccc1OCCSc1nc2ccc(Br)cc2[nH]1	1.44	0.28
O=C1CN(C(=O)c2ccc(Br)o2)C(c2ccc(F)cc2)c2cc(F)ccc2N1 (centres undefined)	nt	-0.47
CC(C)Cn1cc(NC(=O)N(C)c2ccccc2Cl)c2ccccc2c1=O	1.03	nt
O=C(CCc1nnc2ccc(N3CCCC3)nn12)Nc1ccc2c(c1)OCCO2	2.01	nt
CCOC(=O)c1c(N)n(C2CCCCC2)c2nc3ccccc3nc12	1.71	-1.15
CCOC(=O)CCc1nc(N2CCOCC2)c2c(C)noc2n1	0.62	nt
CC(C)CCNC(=O)CCCC1=NS(=O)(=O)c2ccccc2N1	0.62	nt
COc1ccc(NC(=O)CSCc2cc(=O)n3nc(C4CCCCC4)sc3n2)cc1	0.32	nt
O=C(CSc1nc2c(c(=O)n1-c1ccccc1)SCC2)Nc1ccc2c(c1)OCCO2	nt	-0.58
COc1ccc(Oc2c(C(F)(F)F)oc3cc(OC(=O)c4cccs4)ccc3c2=O)cc1	-1.25	0.9
O=C1CSC(=S)N1c1ccccc1	nt	-1.03
CC(C)c1onc(C(=O)N2CCN(c3ccccc3)CC2)c1[N+](=O)[O-]	0.75	-1.17
CCn1c(SCc2nc(-c3ccc(OC)cc3OC)no2)nnc1-c1ccccc1	-0.4	-2.48
CN1CCN(CCNC(=O)C2CCCN(c3nn4c(=O)c5c(nc4s3)CCCC5)C2)CC1 (centres undefined)	0.7	nt
O=C(Oc1cccc(NC2=NS(=O)(=O)c3ccccc32)c1)c1ccncc1	nt	-0.49
Cc1ccc(CNS(=O)(=O)c2cccs2)n1C	nt	-1.54
CCCSCCCNC(=O)Cn1cc2c(n1)CCC(C)C2 (centres undefined)	nt	-1.34
O=C(Nc1ccc(N2CCOCC2)cc1)C1(S(=O)(=O)c2ccccc2)CC1	-1.77	0.94
More compounds follow:
SMILES	TAR Tat displ	CDC25B-CDK2 inh
O=C(NCC1CCCO1)c1ccc(CSc2nc3cccnc3n2Cc2ccc(F)cc2)cc1 (centres undefined)	0.16	nt
O=C(c1ccncc1)N1CCN(C(=O)c2cccs2)CC1	-0.04	-0.25
O=C(CC12CC3CC(CC(C3)C1)C2)Nc1c(F)cccc1F	nt	-1.65
O=C(CCc1ccccc1)OCc1cc(=O)n2nc(C3CC3)sc2n1	-0.1	nt
O=C(NCc1ccc2c(c1)OCO2)c1ccc(CS(=O)Cc2ccc(Cl)cc2)o1 (centres undefined)	0.89	nt
CSc1ncc2c(n1)-c1ccccc1N(Cc1ccccc1)S2(=O)=O	0.42	nt
c1coc(CNc2ncnc3nc[nH]c23)c1	2.76&1.64	-1.31
N#C/C(=C\Nc1ccc(OC(F)(F)F)cc1)C(=O)c1ccco1	nt	-1.63
COc1ccc(-c2noc(NCCc3c[nH]c4ccccc34)n2)cc1OC	-2.14	nt
Cn1c(-c2nnc(SCC(=O)NCCC3=CCCCC3)o2)cc2ccccc21	1.31	-2.67
C=CCOc1ccc(C2c3c(oc4ccc(F)cc4c3=O)C(=O)N2Cc2ccc3c(c2)OCO3)cc1 (centres undefined)	1.59	0.56
COC(=O)c1ccc(C2C(Oc3ccccc3)C(=O)N2c2cccc(Cl)c2)cc1 (centres undefined)	nt	-1.04
O=C(c1ccco1)N1CCN(C(=O)c2noc3c2COc2ccccc2-3)CC1	1.1	-1.26
COc1ccc(S(=O)(=O)N=S2CCN(c3ncc(C(F)(F)F)cc3Cl)CC2)cc1	nt	-1.04
Cc1cc(N=CN(C)C)cc(Cl)c1OS(=O)(=O)c1cc(Cl)cc(Cl)c1	nt	-1.12
O=C1CCCCCC1C1(O)C(=O)Nc2ccc(Br)cc21 (centres undefined)	nt	-1.6
C=CCSC1=C(C#N)C(c2ccc(OCC)cc2)CC(=O)N1 (centres undefined)	-0.88	-2.09
CC1(C)Cc2c(c(-c3ccccc3)nc3sc4c(N5CCOCC5)ncnc4c23)CO1	0.73	-4.07
CC1CCc2c(CCNC(=O)Nc3ccc(Br)cc3)csc2C1 (centres undefined)	-0.25	nt
CCOCCNc1ncnc2onc(-c3ccc(Cl)cc3)c12	-0.47	-1.8
O=C(O)C1Nc2cc(F)ccc2S(=O)(=O)N1 (centres undefined)	1.17	-1.68
O=C(Nc1ccc2c(c1)OCCO2)N1Cc2cccn2-c2ccccc21	-0.69	nt
O=S1(=O)N=C(c2ccc3c(c2)OCO3)Nc2ccc(S(=O)(=O)N3CCCCC3)cc21	0.79	nt
O=C(Cc1noc2ccccc12)NC1CC1	2.77	-1.17
CCn1c(CCc2ccc(NS(C)(=O)=O)cc2)nc2ccccc21	2.16	nt

An excerpt of these results, as labelled records:
mol: O=C(NCC1CCCO1)c1ccc(CSc2nc3cccnc3n2Cc2ccc(F)cc2)cc1 (centres undefined)
  TAR Tat displ: 0.16; CDC25B-CDK2 inh: nt

mol: O=C(c1ccncc1)N1CCN(C(=O)c2cccs2)CC1
  TAR Tat displ: -0.04; CDC25B-CDK2 inh: -0.25

mol: O=C(CC12CC3CC(CC(C3)C1)C2)Nc1c(F)cccc1F
  TAR Tat displ: nt; CDC25B-CDK2 inh: -1.65

The main list resumes, repeating the 2 entries before the break.
SMILES	TAR Tat displ	CDC25B-CDK2 inh
O=C(Cc1noc2ccccc12)NC1CC1	2.77	-1.17
CCn1c(CCc2ccc(NS(C)(=O)=O)cc2)nc2ccccc21	2.16	nt
O=C1c2cccnc2C(=O)N1Cc1ccc(S(=O)(=O)Nc2cccnc2)cc1	0.1	nt
CCS(=O)(=O)NCC(c1ccco1)N1CCN(c2ccc(OC)cc2)CC1 (centres undefined)	0.95	nt
CC1(C)Cc2c(sc3ncn4nc(-c5ccco5)nc4c23)C(C)(C)N1	1.47	-0.59
CCCn1c(=O)c2[nH]c(C3CCCC3)nc2n(CCC)c1=O	2.98	0.15
C=CCn1c(SCC(=O)NCCN2CCOCC2)nc2sc3c(c2c1=O)CCC3	nt	1.22
Cc1ccccc1Cc1c(C)nc2nc(SCc3cc(=O)n4c(C)cccc4n3)nn2c1C	nt	-1.89
Cc1cccc(CN2CCCN(Cc3cc(C)ccc3C)S2(=O)=O)c1	-6.12	nt
O=C(CCc1nc(CSc2nc3ccccc3s2)no1)Nc1ccccc1	0.81	nt
O=C(Nc1cccc(F)c1)NC(c1ccccc1)c1nnc(-c2ccccc2Cl)o1 (centres undefined)	0.82	nt
Cn1nnc2c(N3CCN(c4ccc(F)cc4)CC3)ncnc21	1.49	nt
COC(=O)C1=C(C)Nc2nc(SCc3ccccc3)[nH]c(=O)c2C1c1cccc(F)c1 (centres undefined)	nt	-1.85
CCCNC(=O)C1=C(C)C(=O)OC12CCN(S(=O)(=O)c1cccs1)CC2	-1.04	nt
Cc1csc(NC(=O)CN(C)S(=O)(=O)c2ccc3[nH]c(=O)ccc3c2)n1	1.31	nt
COc1cccc(-c2cc(N)n(S(=O)(=O)Cc3ccccc3)n2)c1	0.89	0.75
Cc1ccc2c(C)nc(NC3=NCN(CCc4ccccc4)CN3)nc2c1	-2.4	3.15

Compound activity deposited in PubChem by Center for Chemical Genomics, University of Michigan.
